AID504770: growth inhibitors of E. coli YBA685 in a screen for V. cholerae RctB (chromosome II replication) inhibitors; E. coli YBA685 rctB-dependent plasmid, OD600 growth, 3 h; hits give low values; z-score (test concentration not listed); 130,000 compounds, 0.27% hits; AID 504770;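 active = z-score under -2 on both plates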;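 also: wells of about 30 µL received 100 nL stock; score is relative to mean and SD of the test wells; the first replicate is given; strong numbers were not always called active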
Ba CapD inh: blocks the Bacillus anthracis CapD enzyme; AID 492967; purified CapD enzyme, fluorescence intensity read-out; hits give low values; some hits fall short of the stated cut; 140,000 compounds, 0.23% hits; z-score (no concentration beside the values);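 active = z-score under -4 in either of two replicates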;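 also: stock transfer was 100 nL into about 40 µL; score is relative to mean and spread of the plate; one replicate is shown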
* = called active by the depositor; x = no result given. Compounds as they come; any-hit rate near 0.37%.

Order of results – Ba CapD inh	AID504770
1) COc1ccc(-c2nc(SC(CC(=O)NCCN3CCOCC3)c3ccc(OC)cc3)n[nH]2)cc1 (centres undefined)
  x	-0.95
2) CCc1ccc(-n2c(=O)c3c(C)c(C(=O)N(C)C)sc3n(CC(=O)NCc3ccco3)c2=O)cc1
  -0.36	1.2
3) O=C(CSC1=NC(=O)C(Cc2ccccc2)C(=O)N1)NCc1ccccc1 (centres undefined)
  -1.1	1.8
4) CC[n+]1c(C)csc1Nc1c(C)cccc1C
  -0.27	x
5) CN(Cc1ccccc1)C(=O)CN(C)S(=O)(=O)c1ccc2c(c1)C(C)(C)C(=O)N2C
  -0.61	-0.55
6) CCc1ccc(-c2csc(-c3cc4c(ccc5ccccc54)oc3=O)n2)cc1
  0.54	x
7) N#Cc1cc2c(nc1SCC(=O)N1CCOCC1)CCC2
  x	-0.1
8) COc1cccc(C(=O)NCCO)c1OC
  0.22	-0.75
9) COc1ccc(Cl)cc1N(C(C)=O)c1nc(C)cc(C)c1C#N
  x	-0.3
10) O=C(OCC(=O)c1ccccc1)C1=COCCO1
  x	-0.2
11) Cc1nc(-c2cccc(C(F)(F)F)c2)sc1C(=O)Nc1ccc(F)cc1F
  0.09	x
12) CCCCc1nc2ccccc2[nH]1
  0.4	-1.9
13) Cc1c(NC(=O)c2cc3n(n2)C(C(F)(F)F)CC(c2ccc(Cl)c(Cl)c2)N3)c(=O)n(-c2ccccc2)n1C (centres undefined)
  0.57	x
14) C=CCSc1nnc(CNS(=O)(=O)c2ccc(Cl)cc2)n1CC
  -0.32	x
15) CCCN1CCC(NC(C)CCCC(C)(C)O)CC1 (centres undefined)
  -0.4	1.9
16) O=C(CSc1ncnc2ccccc12)c1ccc[nH]1
  x	-0.85
17) O=C(CCC(=O)Nc1ccccc1)Nc1ccccc1
  0.1	1.1
18) CCOc1ccc(-c2cc(C(=O)Nc3ccc(S(=O)(=O)NC(C)=O)cc3)c3ccccc3n2)cc1
  21	x
19) Cc1cc(NN)nc2ccccc12
  11	-2
20) CCN1CC2=C(OC(N)=C(C#N)C2c2ccccc2F)/C(=C/c2ccccc2F)C1 (centres undefined)
  0.51	x
21) CC(C)(C)OC(=O)N1CCN(C(=O)Nc2ccc(OC(F)(F)F)cc2)CC1
  0.21	x
22) C=CCNC(=O)c1ccc(NS(=O)(=O)CC)cc1
  0.13	0.3
23) COc1ccc(NC(=O)OCC(F)(F)C(F)F)cc1
  x	1.1
24) COc1ccc(C2=N/C(=C\C(Cl)=C\c3ccccc3)C(=O)O2)c(Br)c1
  -0.99	x
25) O=C(N/N=C/c1ccc(O)cc1)Nc1cccc2nsnc12
  x	1.8
26) O=C(O)COc1ccc2c(c1)CCC2
  0.29	-0.55
27) CCOc1ccccc1C(=O)NC(C(=O)NCc1ccco1)C(C)C (centres undefined)
  x	1.5
28) O=C(O)C(Cc1c[nH]c2ccccc12)N1C(=O)c2ccccc2C1=O (centres undefined)
  x	-0.35
29) N#CN=C(N)c1sc2nc3c(cc2c1N)CCCCC3
  22	-0.25
30) COCc1cc(C)nc2sc3c(=O)n(-c4ccc(C(C)=O)cc4)nnc3c12
  -0.33	x

Other entries
Order of results – Ba CapD inh	AID504770
31) Cc1ccc(C(=O)O/N=C(\c2ccc(F)cc2)C2CC2c2ccc(C)cc2)cc1 (centres undefined)
  0.3	x
32) CCN1CCN(c2cc(C)c3cc(NC(=O)c4ccncc4)ccc3n2)CC1
  -0.9	x
33) O=C(O)COc1cc(Br)c(Br)c(Br)c1O
  x	1.1
34) COc1cc2c(cc1OC)CN(C(=O)c1ccco1)CC2
  0.47	1.1
35) COc1ccccc1C(=O)Nc1ccc2nc(SC)sc2c1
  0.94	x
36) CCCCNC(=O)C1OCCc2ccccc21 (centres undefined)
  -0.29	0.3
37) Cc1cccc(-n2c(=O)c3c(n4c(SCC(N)=O)nnc24)-c2ccccc2CC32CCCCC2)c1
  0.34	x
38) COc1ccc(C2C3=C(CCCC3=O)OC3=C2C(=O)CCC3)cc1O
  0.3	0.1
39) C/C(=N\N)c1c(C)cc(C)[nH]c1=O
  22	-1.2
40) COc1ccc(-c2cn3nc(-c4ccccc4)c(-c4ccccc4)nc3n2)cc1
  -0.29	x
41) C=CCn1c(SCC(=O)Nc2ccc(OCC)cc2)nc2sc(C)c(C)c2c1=O
  0.88	x
42) Cc1ccc2c(Sc3ccc(Cl)cc3)c(C(=O)NCCN3CCOCC3)[nH]c2c1
  -0.45	-1.5
43) CCC(=O)Nc1ccccc1-c1cnn(-c2ccc(S(C)(=O)=O)cc2)c1
  0.6	x
44) CN(c1ccc(O)cc1)c1nc(-c2cccs2)cs1
  x	0
45) COc1ccc([N+](=O)[O-])cc1NC(=O)c1sc2ncn(CC(=O)Nc3cccc(C(F)(F)F)c3)c(=O)c2c1C
  0.015	x
46) CCCN(CCC)S(=O)(=O)c1ccc(-c2nc3ccc(C)cc3o2)cc1
  3.5	-0.65
47) O=c1oc2ccc(Br)cc2cc1-c1nc(-c2ccccc2)c2cc(Br)ccc2n1
  -0.58	x
48) Clc1ccc(-c2onc3ccc(-c4ccnn4-c4ccccc4)cc23)cc1
  -0.43	x
49) O=S(=O)(c1ccc(F)cc1F)N1CCN(C(c2ccccc2)c2ccc(Cl)cc2)CC1 (centres undefined)
  -0.72	x
50) O=C(COC(=O)c1c(F)cccc1F)c1cccc(Cl)c1
  -0.43	-2.5
51) CC(C(=O)NCC1(c2ccccc2)CCOCC1)N1CCCCC1 (centres undefined)
  x	0
52) CCc1ccc(C(=O)CSc2nnc(CN3CCCC3)n2Cc2ccccc2)s1
  x	-0.1
53) Cn1c(Cn2cnc3ccccc32)nc2ccccc21
  -0.005	-1
54) Cc1ccc(S(=O)C(F)(F)F)cc1 (centres undefined)
  0.44	0.45
55) CCOc1cccc(=O)c2c(C)oc(C)c12
  -0.78	-0.75
56) O=C(CSc1nc2ccc(NC(=O)C3CCCCC3)cc2s1)NCC1CCCO1 (centres undefined)
  1.6	-0.45
57) O=C(c1cc2ccccc2oc1=O)n1cc(Br)cn1
  0.73	-0.5
58) Clc1ccc(-c2nn3c(-c4ccco4)nnc3c3ccccc23)cc1
  -0.11	-0.45
59) COc1cccc(C2C(N3C(=O)c4ccccc4C3=O)C(=O)N2c2ccc(C)c(C)c2)c1 (centres undefined)
  -0.2	x
60) NNC(=O)N/N=C/c1ccc(I)cc1
  -0.29	0.45

(list continues)
Order of results – Ba CapD inh	AID504770
61) COC(=O)Cn1nnc(-c2nnn(COC(C)=O)c2-c2ccccc2)c1-c1ccccc1
  0.66	-0.1
62) O=C1C(=O)N(CCN2CCOCC2)C(c2ccccc2)/C1=C(\O)c1ccc(F)cc1 (centres undefined)
  -0.15	x
63) NC[C@@H]1O[C@H](O[C@@H]2[C@@H](CO)OC(O[C@@H]3[C@@H](O)[C@H](N)C[C@H](N)[C@H]3OC3O[C@H](CN)[C@@H](O)[C@H](O)[C@H]3N)[C@@H]2O)[C@H](N)[C@@H](O)[C@@H]1O (some centres undefined)
  0.14	-0.45
64) O=S(=O)(NCc1cc(F)cc2c1OCOC2)c1cccc2nonc12
  -0.53	0.75
65) OC1CCC(Nc2ccnc3cc(Cl)ccc23)CC1 (centres undefined)
  x	-0.95
66) N#Cc1c(-c2ccccc2)cc(C2CC2)c(C#N)c1N
  27	-0.5
67) COc1ccccc1CNC(=O)COc1ccc(-n2ccnc2)cc1
  x	-0.65
68) CCOC(=O)/C=C(/C)Nc1ccc(OC)cc1
  -0.24	1.2
69) Cc1ccc(S(=O)(=O)CCSc2nc(C3CC3)cc(C(F)(F)F)c2C#N)cc1
  6.2	0
70) N#CC1=C(N)Oc2n[nH]c(-c3ccc4c(c3)OCO4)c2C1c1ccc(Cl)c([N+](=O)[O-])c1 (centres undefined)
  -0.37	x
71) O=C1CCN(c2ccccc2)N1CCOc1ccc(Cl)cc1Br
  -0.005	-0.85
72) CC(C)(C)C(=O)NC1CCN2CCCc3cccc1c32 (centres undefined)
  0.52	x
73) O=C1Nc2ccccc2/C1=N\N=C\c1cc(Br)cc(Br)c1O
  -0.64	x
74) Cc1ccc(/C=C2\SC(=S)N(CCC(=O)Nc3sc4c(c3C(N)=O)CCCC4)C2=O)cc1
  -0.36	x
75) CCN(c1cccc2ccccc12)S(=O)(=O)c1ccccc1
  0.23	-0.95
76) CC1=NN(c2ccc(N=Cc3ccc(Cl)c(Cl)c3)cc2)C(=O)C1
  -0.55	x
77) COc1cc(-c2nc3ccccc3c(=O)n2NC(=O)Cn2nc(C(F)(F)F)cc2C(F)(F)F)cc(OC)c1OC
  0.38	x
78) COc1ccc(NC2c3cccc4cccc(c34)C2NS(=O)(=O)c2ccccc2)cc1 (centres undefined)
  -0.085	x
79) CCOc1ccccc1NC(=O)Cc1ccc(OCc2c(C)noc2C)cc1
  x	-0.5
80) CC(C)c1ncc(C(O)c2ccccc2)n1C (centres undefined)
  -0.85	-0.2
81) COC(=O)C1=C(C)NC2=C(C(=O)CCC2)C1c1ccc(-c2cccs2)s1 (centres undefined)
  36	-1.2
82) CC(C)(CNc1nnnn1-c1ccccc1)N1CCOCC1
  x	0.15
83) CCn1c(CNc2ccc(C(=O)O)cc2)nc2ccccc21
  -0.35	0.2
84) CCCC(C)NC(=O)Cc1ccc(Cl)cc1 (centres undefined)
  0.14	0.25
85) Nc1cccc(Cl)c1F
  x	0.85
86) Cc1nn(-c2ccccc2)c2c1-c1sc(C(=O)N3CCCC3)cc1CC2
  69	-0.3
87) Brc1cc2c(cc1CSc1nc3ncccc3[nH]1)OCO2
  1	1.2
88) CC(C)(C)n1nc(-c2ccc(Cl)cc2)c(C#N)c1N
  0.29	-0.85
89) Cc1ccc(N2C(=O)C(=O)/C(=C(\O)c3ccccc3)C2c2ccccc2F)cc1 (centres undefined)
  -0.27	x
90) O=C(NCC1COc2ccccc2O1)C12CC3CC(CC(O)(C3)C1)C2 (centres undefined)
  x	0.05

Other results follow.
Order of results – Ba CapD inh	AID504770
91) Cc1ccc(-c2nn(-c3ccccc3)cc2CSC(=N)N)cc1
  -0.47	-0.75
92) Cc1c(C#N)c2nc3c(c(-c4ccc(Br)cc4)c2n1-c1ccccc1)CCC3
  -0.24	x
93) O=C1/C(=C/c2cccc3c2OCO3)CCC/C1=C\c1cccc2c1OCO2
  -0.4	0
94) CCOc1ccc(C(=O)NC2CC2)c(OCC)c1
  -0.12	1
95) COc1ccc(-c2cnn(-c3nc(-c4ccc(Cl)cc4)cs3)c2N)cc1
  -0.7	x
96) c1ccn(-c2ccc(N3CCOCC3)cc2)c1
  x	-0.55
97) Cc1noc(C)c1CSCC(=O)OCc1nnc(-c2ccccc2Br)o1
  x	0.05
98) CCn1c(C)c(C)c2cc(C(=O)NC3CCCC3)ccc21
  2.7	0.35
99) CC(C)(C)c1cc(-c2nc(-c3ccccn3)no2)n(Cc2ccccc2)n1
  -0.74	0.9
100) CCc1ccc2c(CN3CC(C)OC(C)C3)cc(=O)oc2c1 (centres undefined)
  x	2.6
101) CCOC(=O)Cn1c(=O)n(Cc2ccco2)c2ncccc21
  0.44	0.95
102) O=C(CC12CC3CC(CC(Br)(C3)C1)C2)NCC1CCCO1 (centres undefined)
  0.5	-0.05
103) COc1ccc(OC(=O)c2ccc3nonc3c2)cc1
  -0.42	-0.15
104) CCC(Oc1ccccc1Cl)C(=O)O (centres undefined)
  x	0.2
105) CCSc1nnc2n(-c3ccccc3)c3ccccc3n12
  4.6	1.2
106) CC(C(=O)NC1CCCc2ccccc21)N1CCN(c2ccc(F)cc2)CC1 (centres undefined)
  x	-0.7
107) CSc1nnc(CCN)n1C
  x	0.8
108) Fc1ccc(CSc2nnc(SCc3ccccc3)s2)cc1
  0.58	0.1
109) CC(C)Oc1ccc(CNC(=O)CCS(=O)(=O)c2ccc3c(c2)CC(=O)N3C)cc1
  -0.1	-0.75
110) COCC1OC2OC3(CCCCC3)OC2C2OC3(CCCCC3)OC12 (centres undefined)
  0.23	x
111) O=C(NN1CCOCC1)c1cccc(COc2cccc(Br)c2)c1
  -0.7	3
112) c1nc(SCc2ccon2)c2c3c(sc2n1)CCC3
  x	-1.2
113) COC(=O)c1sccc1N/N=C(\C#N)C(=O)c1ccco1
  -0.035	x
114) CC(C)(C)C(N)=O
  x	1.3
115) C/C(Cn1c(=O)oc2ccccc21)=N\OC(=O)Nc1ccccc1
  -0.36	2.1
116) Oc1cccc2ccc(N3CCOCCOCCN(c4ccc5cccc(O)c5n4)CCOCCOCC3)nc12
  16	x
117) CCNc1nc(-c2ccc(Br)cc2)cs1
  -0.52	0.15
118) c1cnc2nc(-c3ccc4c(c3)OCCO4)cn2c1
  110	-1.4
119) O=S1(=O)N=C(CCCl)Nc2ccccc21
  -0.88	0.55
120) FC(F)(F)c1ccnc(NCCNc2ncccc2C(F)(F)F)n1
  1.2	1.5
121) CC(=O)OC(C(=O)O)C(OC(C)=O)C(=O)Nc1ccc(Cl)cc1 (centres undefined)
  0.02	x
122) O=C(NCCCN1CCCC1)c1csc2c1CCCC2
  -0.045	-0.25
123) Clc1ccc(CN2COc3c(cc(Cl)c4cccnc34)C2)cc1
  0.45	1.9

Single values from the entries so far.
CCc1ccc(-n2c(=O)c3c(C)c(C(=O)N(C)C)sc3n(CC(=O)NCc3ccco3)c2=O)cc1 – Ba CapD inh: -0.36
CCCCNC(=O)C1OCCc2ccccc21 (centres undefined) – Ba CapD inh: -0.29
COc1cc2c(cc1OC)CN(C(=O)c1ccco1)CC2 – Ba CapD inh: 0.47

Quoted from the results shown for reference:
Order of results – Ba CapD inh	AID504770
118) c1cnc2nc(-c3ccc4c(c3)OCCO4)cn2c1
  110	-1.4
119) O=S1(=O)N=C(CCCl)Nc2ccccc21
  -0.88	0.55
120) FC(F)(F)c1ccnc(NCCNc2ncccc2C(F)(F)F)n1
  1.2	1.5
121) CC(=O)OC(C(=O)O)C(OC(C)=O)C(=O)Nc1ccc(Cl)cc1 (centres undefined)
  0.02	x
122) O=C(NCCCN1CCCC1)c1csc2c1CCCC2
  -0.045	-0.25
123) Clc1ccc(CN2COc3c(cc(Cl)c4cccnc34)C2)cc1
  0.45	1.9

Bioassay records deposited in PubChem by ICCB-Longwood Screening Facility, Harvard Medical School.
